Compound activity deposited in PubChem BioAssay by Broad Institute.
Tgondii IFNg: blocks Toxoplasma gondii growth in the presence of IFN-gamma | Toxoplasma gondii growth in IFN-gamma-treated host cells; hits give low values; reference of the scale not given here | activity change, negative = inhibition, %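 (about 20 µM by stock and volumes)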 | hit rate 3.8% among 69,000 | AID 1259416;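 active means below -70%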;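 further: host cells are HeLa cells infected with Toxoplasma gondii; parasite growth read as luciferase light; one replicate is shown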
Numbers without * were called inactive; i = inactive. Some of the compounds tested. The share of hits here may be higher or lower than overall.

structure | Tgondii IFNg
O=C(c1ccncc1)N1CC2(C1)[C@H](c1ccccc1)[C@H](CO)N2CC1CC1 | 36
Cc1noc(C)c1NC(=O)N(C)C[C@@H]1Oc2cc(C#CCN(C)C)ccc2S(=O)(=O)N([C@@H](C)CO)C[C@H]1C | 354
Cn1ccnc1SCCn1ccnc1-c1ccc2ccccc2n1 | 88
CN(C)[C@@H]1CCN(CC2CCOCC2)[C@@H]1Cc1ccncc1 | 2
Cc1ccccc1C1(O)CCN(C(=O)c2cc3c([nH]c2=O)CCCCC3)CC1 | 24
COc1cc(F)ccc1-c1cc(CO)ccn1 | 2
Cc1ccsc1CN1CC[C@]2(C1)C(=O)NC[C@@H]2COc1cccnc1 | -37
CN1C(=O)c2cc(NS(=O)(=O)c3ccccc3Cl)ccc2OC[C@H]2O[C@@H](CC(=O)Nc3cc(F)ccc3F)CC[C@@H]21 | 40
CCN(CC)c1ccc(NC(=O)C2C(C)C(=O)OC23CCC(C(C)C)CC3)c(C)c1 (stereo not given) | 28
CCOC(=O)c1nc(NCCN2CCOCC2)c2ccccc2n1 | 90
CC(C)CN1C(=O)N(C2Cc3ccccc3C2)C(=O)C12CCN(Cc1cnn(-c3ccccc3)c1)CC2 | -10
COc1ccc(OS(=O)(=O)c2ccc(S(=O)(=O)NCc3ccccc3)cc2)cc1 | 2
Cc1ccc(CN2CC[C@@H]3OCCN(C(=O)c4cnccn4)[C@@H]3C2)cc1C | -3
O=c1oc2ccccc2n1Cc1c(-c2ccc(F)cc2)nc2ccccn12 | 33
O=C(C[C@@H]1CC[C@@H]2[C@H](COC[C@H](O)CN2C(=O)c2ccncc2)O1)NCc1cc(F)cc(F)c1 | -12
CC(=O)n1nccc1-c1c(C)nc2ccccn12 | -61
Clc1nnc(N2CCCCC2)c2ccccc12 | -88*
Cc1ccc(S(=O)(=O)N2CCC3(CC2)NCCN=C3NCc2cc(F)cc(F)c2)c(C)c1 | -2
CCOc1ccc(C(=O)NCCc2csc(-c3cccc(C)c3)n2)cc1 | i
O=C(Cn1ncc2c(N3CCCCC3)ncnc21)NCC1CCCO1 (stereo not given) | 82
CCOCC1CN(Cc2ccsc2)Cc2nn(C)cc21 (stereo not given) | 149
Cc1ccccc1-c1ccc2c(c1)O[C@@H](CN(C)C(=O)Nc1ccc(C(F)(F)F)cc1)[C@H](C)CN([C@H](C)CO)S2(=O)=O | -92*
COC(=O)c1sc(SC)c(-c2ccn(S(=O)(=O)c3ccc(Cl)cc3)n2)c1C | 15
CCn1cc(S(=O)(=O)Nc2ccc(Oc3cccnc3)cc2)c(C)n1 | 30
Cc1oncc1C(=O)N1CC2(CCN(C)C(C(=O)O)CO2)C1 (stereo not given) | 2
CCc1noc(-c2cc(=O)n(CC(=O)Nc3ccccc3Cl)c3ccccc23)n1 | -48
CCC(C)N(Cc1ccc(S(C)(=O)=O)cc1)Cc1ccsc1 (stereo not given) | -1
CC(C)CNC(=O)c1cc2c(s1)CCN2C(=O)C1CC1 | -3
CC(=O)N1[C@H](CO)[C@H](c2ccccc2)[C@@H]1CN(CC(C)C)C(=O)c1ccccn1 | -5
Cc1noc(-c2cc(=O)n(CC(=O)Nc3ccc(F)c(C)c3)c3ccccc23)n1 | -9
CCCN1CCN(CCCNc2nc(-c3ccc(OC)cc3)nc3ccccc23)CC1 | -53
Cc1nc(C2COCCN2C(=O)COc2ccc(F)cc2)cs1 (stereo not given) | -2
O=C(CNC1CCS(=O)(=O)C1)NC(Cc1cccs1)c1nccs1 (stereo not given) | -12
CCS(=O)(=O)N1CC=C[C@H]1C(=O)Nc1ccc(OC)cc1 | 123
COc1ccccc1CNc1nc2ccccc2n1C(C)C | -40
CC(O)c1cccc(-c2cc(NC3CCNCC3)nc3[nH]ccc23)n1 (stereo not given) | -93*
CC1CCN(c2cncnc2-n2cc(NC(=O)CC3CCCCC3)cn2)CC1 | -88*
CCCN(Cc1cccnc1)Cc1cc(Cl)c(O)c(OC)c1 | 9
O=C(c1ccncn1)N1CCOc2c(O)cc(-c3nc4ccccc4s3)cc2C1 | -13
COc1ccccc1C(=O)Nc1ccc2c(c1)C(=O)N(C)[C@H]1CC[C@H](CC(=O)Nc3cc(F)ccc3F)O[C@@H]1CO2 | -40
COc1ccc(OCC(=O)Nc2sc3c(c2C(N)=O)CCCC3)cc1 | 39
Cc1ccc(C(=O)c2ccccc2C(=O)O)cc1C | -14
CC(C)NC(=O)N1CCC2(CC1)OC(C(=O)Cc1ccccn1)Cn1ccnc12 (stereo not given) | 1
c1ccc(CNc2cc(-c3ncnc4c3CCC4)c3cc[nH]c3n2)nc1 | 127
CC1CCN(S(=O)(=O)c2ccc3c(c2)CCC(=O)N3CC(=O)Nc2nccs2)CC1 | 20
Cc1ccccc1S(=O)(=O)Nc1ccc2c(c1)C(=O)N(C)[C@H]1CC[C@@H](CC(=O)O)O[C@H]1CO2 | 20
COc1cccc(OC(C)C(=O)NCc2cccc(-c3nn(C)cc3-c3ccncc3)c2)c1 (stereo not given) | -114*
COc1ccc(-c2nc(Nc3ccccc3F)c3ccccc3n2)cc1 | -38
CC(=O)Nc1cccc(OC(=O)c2ccoc2C)c1 | -7
O=S(=O)(NC1c2cccc3cccc(c23)C1NCc1ccco1)c1ccc(Cl)cc1 (stereo not given) | 11
COCCC(=O)N1CCc2ncc(CN(C)C)n2CC1 | 42
Cc1cc(F)ccc1NC(=O)CN1C(=O)CCc2cc(S(=O)(=O)N3CCCCC3C)ccc21 (stereo not given) | 40
CN(C)C(=O)COCC1CN(C2CCOC2)Cc2ccnn2C1 (stereo not given) | 235
Cc1ccoc1C(=O)N1CCC2(CC1)CC(=O)N(Cc1ccncc1)C2 | 4
C[C@H](NC(=O)C[C@@H]1CC[C@H]2[C@@H](COC[C@@H](O)CN2C(=O)Nc2cccc(Cl)c2)O1)c1ccccc1 | -45
CCOC(=O)c1cc(Cl)cnc1C1CCN(Cc2cccc(OC)c2)CC1 | -20
Cc1ccc(CN(CCN(C)C)C(=O)c2ccc(C)c(C)c2)s1 | -13
CC(=O)N1Cc2cc(C)ccc2OC2(CCCN(CC(=O)c3cc(C)sc3C)C2)C1 (stereo not given) | -54
O=C(Nc1ccccc1OCc1ccccn1)c1ccc(N2CCOCC2)cc1 | 102
CCCNC(=O)N1[C@@H](C#N)[C@H](c2ccc(-c3ccccc3F)cc2)[C@@H]1CO | -41

(more compounds)
structure | Tgondii IFNg
CC(=O)Nc1cccc(NC(=O)C(=O)NCCc2csc(-c3cccc(F)c3)n2)c1 | 34
Cc1ccc(-c2cc(C(=O)Nc3ccc4c(c3)CCC(=O)N4)c3ccccc3n2)cc1C | 9
COc1ccccc1CNC(=O)c1nc(Nc2ccccc2)c2ccccc2n1 | -65
CN(C)C1CCN(Cc2ccc(C(=O)Nc3ccc4c(cnn4C)c3)cc2)C1 (stereo not given) | 79
CN(C)[C@H]1CCN(c2nc(C(C)(C)C)nc3c2cnn3C)C1 | -12
CC(=O)N1CCC(C(=O)NCc2ccccc2)(N(C(=O)c2ccc(C)cc2)c2cccc(C)c2)CC1 | 67
COc1cc(-c2nc(Cn3ccn4nc(-c5ccc(C)c(C)c5)cc4c3=O)c(C)o2)cc(OC)c1OC | 56
O=C(CN1CCCC1Cn1cccn1)Nc1ccnn1C1CCCC1 (stereo not given) | 1
CCCCN(Cc1ccc(F)cc1)C(=O)c1ccn[nH]1 | 1
CN(C)CC/C=C1\c2ccccc2CSc2ccccc21 | -6
COc1ccccc1S(=O)(=O)N1CC[C@@H]2[C@H]1c1cc(C#CC3CCCCC3)ccc1N[C@@H]2CO | 2
CCOC(=O)[C@@]12CCCN(Cc3cccnc3)C[C@@H]1CN(C(C)=O)C2 | 2

Filtered by structure, the compounds so far with an NH in an aromatic ring.
structure | Tgondii IFNg
Cc1ccccc1C1(O)CCN(C(=O)c2cc3c([nH]c2=O)CCCCC3)CC1 | 24
CC(O)c1cccc(-c2cc(NC3CCNCC3)nc3[nH]ccc23)n1 (stereo not given) | -93*
c1ccc(CNc2cc(-c3ncnc4c3CCC4)c3cc[nH]c3n2)nc1 | 127
CCCCN(Cc1ccc(F)cc1)C(=O)c1ccn[nH]1 | 1

Further records
structure | Tgondii IFNg
Cc1cc(F)ccc1NC(=O)Cn1ncc2c(N3CCN(c4ccccn4)CC3)ncnc21 | 62
C[C@@H]1CCCCO[C@H](CN(C)S(=O)(=O)c2ccccc2)[C@H](C)CN([C@@H](C)CO)C(=O)c2cc(NC(=O)Nc3ccc4c(c3)OCO4)ccc2O1 | 251
Cn1nnc2c1C(COCC1CC1)CN(Cc1cccnc1)C2 (stereo not given) | -36
O=C(OCCNC(=O)c1ccc2ccccc2n1)c1ccc(F)cc1 | 10
CC1(C)SCC(C(=O)NCc2cccnc2Oc2ccccc2F)NC1=O (stereo not given) | 0
CN(Cc1cnn(-c2ccccc2)c1)Cc1ccnn1-c1ccccc1 | 15
COc1ccc(CC(=O)Nc2c[nH]c(=O)[nH]c2=O)cc1OC | 12
COc1ccc(OCC(=O)N2CCC3(CC2)Nc2ccccc2-n2cccc23)cc1 | 23
CN(C)C(=O)c1cccc(-c2ccc3c(c2)[C@@H]2[C@@H](CCN2C(=O)c2cnccn2)[C@H](CO)N3)c1 | 10
C=CCN1CC[C@@]2(CN(Cc3nccn3C)C[C@H]2c2ccccc2)C1=O | -2
Cc1nc(-c2cccc(F)c2)sc1CCNC(=O)c1ccc(F)c(F)c1 | 38
CC(=O)Nc1ccc(CN(C)Cc2nncn2C(C)C)cc1 | 2
Cc1noc(C)c1S(=O)(=O)N(C)C[C@@H]1Oc2c(NS(=O)(=O)c3cn(C)cn3)cccc2C(=O)N([C@@H](C)CO)C[C@@H]1C | 6
Cn1c(=O)c(-c2ccccc2)c(O)c2ccccc21 | -32
Cc1cc(C)n(CCCN(C)c2nc(-c3ccccc3)nc3c2CCNC3)n1 | -24
COCC(=O)NCC1=CCCN(Cc2ccc3ccccc3n2)C1 | 1
COc1cccc(-c2cn[nH]c2C2CCN(C(=O)CN3CCOC3=O)CC2)c1 | -3
Cc1ccc(NC(=O)N2CCC(c3nc(CCNC(=O)C(C)C)cs3)CC2)cc1 | 17
Cc1cc(C(=O)N2CCC3(CC2)CNC(=O)C3)no1 | i
CNC(=O)N1CCCC(Cn2cccc2)C1 (stereo not given) | -19
Cc1cc(C)c(NC(=O)CCC(=O)NCC(C)n2cncn2)c(C)c1 (stereo not given) | -26
COc1ccc(-c2ccccc2)cc1Br | 9
CCCN1CC(NC(=O)c2ccc(-n3cnnc3)cc2)CC1=O (stereo not given) | 2
Cc1ccc(CN2CCC3C2CCC(=O)N3CCN2CCCC2)s1 (stereo not given) | 74

As a short view, 4 of the compounds above.
structure | Tgondii IFNg
Cc1noc(C)c1S(=O)(=O)N(C)C[C@@H]1Oc2c(NS(=O)(=O)c3cn(C)cn3)cccc2C(=O)N([C@@H](C)CO)C[C@@H]1C | 6
Cn1c(=O)c(-c2ccccc2)c(O)c2ccccc21 | -32
Cc1cc(C)n(CCCN(C)c2nc(-c3ccccc3)nc3c2CCNC3)n1 | -24
COCC(=O)NCC1=CCCN(Cc2ccc3ccccc3n2)C1 | 1

Additional structures follow.
structure | Tgondii IFNg
C[C@H](O)C#Cc1ccc([C@H]2[C@@H](CO)N3CCCCN(C(=O)c4ccc5c(c4)OCO5)C[C@H]23)cc1 | 7
Cc1c(-c2ccc(Cl)cc2)n[nH]c1C(=O)N1CCOC(C(F)(F)F)C1 (stereo not given) | 9
CO[C@@H]1CCN(c2ncc(F)cn2)[C@H]1Cc1cnn(C)c1 | -25
CC(C)NC(=O)C1CC(=O)N(CCc2c[nH]c3ccc(Cl)cc23)C1 (stereo not given) | 286
O=C(C1CCCCC1)N1CC[C@](O)(c2ccccc2)[C@H](N2CCCC2)C1 | -13
O=C(Nc1cccc(Cl)c1)N1CCCC1 | 10
FC(F)(F)c1cccc(NC(=S)Nc2ccccn2)c1 | -113*
O=C(NCC1CC1)C1CN(C(=O)c2ccoc2)CC12CCOCC2 (stereo not given) | -49
CCCCc1cn(CC2CCN(C(=O)C3CC=CCC3)CC2)nn1 (stereo not given) | -2
CC1N(C)C(=O)COC12CCN(C(=O)c1ccc3c(c1)OCO3)CC2 (stereo not given) | 8
C[C@H]1COCc2cnnn2CC[C@H](Cc2ccccc2)C(=O)N1 | 35
CC(=O)N1C(Cn2cccn2)CC2CN(Cc3ccc(C)o3)CCC21 (stereo not given) | 3
CCOc1ccccc1CN(Cc1ccoc1)C1CC1 | 59
COCc1ncc(CN2CCN(Cc3ncccc3C)CC2)cn1 | -47
CCOC(=O)c1[nH]c(C)c(S(=O)(=O)NC2CCCCNC2=O)c1C (stereo not given) | -95*
CCOc1ccc(-c2nc(CN(c3ccccc3)S(=O)(=O)c3cccs3)c(C)o2)cc1 | -13
COCCCN1CCCC12CCN(C(=O)C1CCCC1)CC2 | 3
Cc1nc2c(C(=O)N3CCOC(c4ccc(Cl)c(Cl)c4)C3)cccc2[nH]1 (stereo not given) | 68
O=C(Cc1ccccc1)N1CC[C@@H]2[C@H](CO)Nc3ccc(C#Cc4cccc(F)c4)cc3[C@@H]21 | -11
O=C(COc1ccc(C(=O)N2C[C@H]3CC[C@H]2C3)cc1)N1CCCCC1 | 0
COC(=O)CCN1CC(OCc2cccc(OC)c2)CN(C(=O)c2ccc(C)c(C)c2)CC1=O (stereo not given) | -6
CCOc1ncccc1C(=O)N1CCC[C@H]2CN(C(=O)CCCN3CCCC3=O)C[C@H]21 | -8
Cc1c(C(=O)O)sc2ncnc(N3CCC(N4CCOCC4)C3)c12 (stereo not given) | -39
CCOc1ccc(S(=O)(=O)n2cc(F)c(=O)[nH]c2=O)cc1 | -85*
Cc1cccc(N2CCN(C(=O)c3cncc(N(C)S(=O)(=O)c4ccccc4)c3)CC2)c1C | -52
COc1ccc(Cn2c(-c3cc(C)nn3C)n[nH]c2=O)cc1 | 2
Cc1cccc(C2(C(=O)Nc3nnc(C4CCCCC4)s3)CCOCC2)c1 | -44
